HNF4A DNA FP: change in binding of human HNF4 alpha to DNA | 360,000 tested, 0.3% active | HNF4a-FITC DNA binding, fluorescence polarization, 1 h | activity change, % at 10 µM | P41235; in the data active means activity change above about 30%, passing the limit was not always enough;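 further: controls were the assay level and a saturating level of protein; the project sought stronger binding though the title names inhibitors; some compounds called inactive have numbers as strong as hits; positive values seem to mean higher polarization but the record does not say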
Target sequence (P41235 whole entry, looked up): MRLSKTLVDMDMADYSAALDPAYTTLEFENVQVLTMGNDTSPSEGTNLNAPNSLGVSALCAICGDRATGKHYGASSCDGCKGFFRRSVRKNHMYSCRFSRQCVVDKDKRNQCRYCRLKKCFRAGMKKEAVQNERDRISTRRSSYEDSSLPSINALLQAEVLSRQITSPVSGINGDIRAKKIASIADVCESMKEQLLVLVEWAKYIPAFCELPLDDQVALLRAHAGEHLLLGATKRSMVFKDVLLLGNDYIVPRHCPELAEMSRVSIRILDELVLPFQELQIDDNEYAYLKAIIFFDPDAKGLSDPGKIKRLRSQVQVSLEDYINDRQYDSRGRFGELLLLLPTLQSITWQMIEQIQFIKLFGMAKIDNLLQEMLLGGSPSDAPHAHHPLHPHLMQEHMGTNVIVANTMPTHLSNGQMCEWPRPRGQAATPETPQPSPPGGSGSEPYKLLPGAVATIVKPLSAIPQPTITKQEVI
Ecoli growth: inhibitors of Escherichia coli growth. OD600, 23 h; stronger effect = lower value. 330,000 tested, 0.21% active. OD600 absorbance (no concentration beside the values);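 active means OD600 absorbance below the run mean of sample wells minus 3.6 SD, in any replicate, cut at about 0.56 in these data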;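 further: stock transfer was 300 nL into about 60 µL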
FGF22 binding: shifts melting point of recombinant human FGF22. Q9HCT0. recombinant FGF22 thermal shift, SYPRO orange fluorescence; percent of sucrose octasulfate shift, DMSO zero. calls only at 9.99 µM. 340,000 tested, 1.5% active;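 active means melting point raised past a set limit in the mean and every replicate; inconclusive means no clear call; three in four hits are not shown here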
Target sequence (Q9HCT0 whole entry, looked up): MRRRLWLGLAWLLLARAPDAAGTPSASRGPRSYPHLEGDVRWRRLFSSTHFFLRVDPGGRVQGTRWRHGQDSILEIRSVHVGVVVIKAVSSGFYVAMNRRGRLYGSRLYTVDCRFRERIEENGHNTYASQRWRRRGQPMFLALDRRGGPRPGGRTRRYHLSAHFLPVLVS
Vif A3G: inhibitors of Vif binding to APOBEC3G peptide, primary screen, biochemical, TR-FRET, GST-Vif 1-94, biotin-A3G peptide, dose response retest (AID 1117319). inhibition, %, or IC50 in µM where a hit was titrated. TR-FRET GST-Vif / biotin-A3G peptide binding; higher % means a stronger effect; test concentration not given here; strong numbers were not always called active. 260,000 tested, 0.57% active;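 active means above the screen mean plus three standard deviations and confirmed in dose response; inconclusive means results disagree or hit not tested in dose response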;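 further: Vif residues 1-94 fused to GST binding biotinylated APOBEC3G peptide 110-148; 0% = full assay without inhibitor and 100% = GST in place of GST-Vif; retest series ran down from 100 µM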
AF4-AF9 inh: MLL-AF4/AF9 protein interaction inhibition; P42568; AlphaScreen, biotin-AF4 peptide binding to FLAG-AF9; inhibition, % at 10 µM; 350,000 tested, 0.47% active;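 active means every replicate reaching a set inhibition limit, whatever the replicate mean, cut at about 25% in these data; inconclusive means mean inhibition reaches that limit but some replicates miss it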;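 further: 0% = plate neutral control median and 100% = total signal loss; the record names both 10 and 1 µM as test concentration; the first replicate is given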
UCH37 inh: blocks the human deubiquitinase UCH37 | AID 588478 | purified proteasome/UCH37, Ub-AMC cleavage fluorescence | Q9Y5K5 | inhibition, % (no concentration beside the values) | 330,000 tested, 0.33% active;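 active means mean of two replicates above 20%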;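 further: 0% = compound-free wells with enzyme and 100% = wells lacking proteasome; stock transfer was 100 nL into about 20 µL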
Target sequence (Q9Y5K5 whole entry, looked up): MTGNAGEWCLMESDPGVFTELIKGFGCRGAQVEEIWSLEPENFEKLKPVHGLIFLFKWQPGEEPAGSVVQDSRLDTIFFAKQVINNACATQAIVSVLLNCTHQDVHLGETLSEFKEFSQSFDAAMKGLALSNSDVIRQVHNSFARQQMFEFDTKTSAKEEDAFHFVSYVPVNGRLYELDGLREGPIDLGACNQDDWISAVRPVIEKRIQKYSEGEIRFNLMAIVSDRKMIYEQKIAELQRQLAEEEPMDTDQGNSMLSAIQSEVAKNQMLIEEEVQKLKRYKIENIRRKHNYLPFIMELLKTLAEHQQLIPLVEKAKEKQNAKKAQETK
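Assay system: Proteasome-bound UCH37. Buffer or medium: pH 7.4 Tris-HCl (50 mM) with ovalbumin, ATP-MgCl2, DTT. Incubation: 30 min preincubation with enzyme, 25 min cleavage at room temperature. Measured by: fluorescence, ex 355 nm, em 460 nm. Read-out basis: percent inhibition. Control set: wells without proteasome as full block, compound-free enzyme plus substrate as uninhibited.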
RanGTP-Impb inh: disruptors of Ran-importin-beta complex formation – biochemical, FRET, CFP-Ran, YFP-importin-beta, homogeneous, primary screen | cell-free CFP-Ran/YFP-importin-beta FRET ratio | inhibition, % (test concentration not listed) | 300,000 tested, 1.1% active;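 active means most replicates above 15%; inconclusive means exactly half above 15%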;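 further: 0% = DMSO wells and 100% = Ran loaded with GDP instead of GTP; wells of about 40 µL received 100 nL stock; the first replicate is given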
Active calls of the source: *; i = inactive; ? = inconclusive; · = no result given; & = joins results of further samples. Not all compounds are listed, so the mix of outcomes need not match the whole.

RanGTP-Impb inh	Vif A3G	AF4-AF9 inh	UCH37 inh	HNF4A DNA FP	Ecoli growth	FGF22 binding	canonical_smiles
-1.0	0%	-1.2	-0.8	2.0	0.72	i	O=C(CSc1nnc(NC(=O)c2ccco2)s1)Nc1ccc(F)cc1
-2.2	-3%	·	-2.3	-0.1	0.72	·	Cc1noc(C)c1CSc1nnc(-c2ccccc2)n1Cc1ccco1
-3.7	5%	·	6.2	0.4	0.71	·	CCOc1cc(S(=O)(=O)N2CCC(c3nc4ccccc4s3)CC2)c(OCC)cc1S(=O)(=O)N1CCCCC1
-2.5	-2%	·	5.3	·	0.68	·	N#Cc1cc([N+](=O)[O-])ccc1NC(=O)COC(=O)CC1CCCC1
?	-1%	·	3.3	1.4	0.67	·	Cc1ccccc1CSc1nsc(N)n1
6.7	·	-18	·	1.4	·	i	NC(=S)N/N=C/c1c[nH]c2ccccc12
3.3	31%	·	-0.9	-3.8	0.69	·	Cc1cc2ccccc2c(=O)n1CC(=O)N1CCN(c2cccc(Cl)c2)CC1
-2.1	·	-8.3	-314	-2.7	0.7	i	CCOC(=O)c1c(NC(=O)COC(=O)c2ccccc2NC)sc(C(=O)N(C)C)c1C
1.8	·	-0.9	-0.1	2.2	0.66	i	O=C(Cn1c(=O)oc2ccccc21)Nc1ccccc1N1CCOCC1
-0.5	·	8.6	3.1	-1.9	0.68	i	O=C(Oc1cccc(C(=S)N2CCOCC2)c1)c1ccc([N+](=O)[O-])cc1
2.3	4%	0.4	1.5	1.8	0.71	i	CC1(N2CCOCC2)C(=O)c2ccccc2C1=O
6.9	-3%	1.4	-2.6	-3.5	0.69	i	COc1cccc(OCc2nn3c(=O)c(-c4ccccc4)nnc3s2)c1
1.9	-14%	-9.4	3.3	1.4	0.67	i	Cn1cc(C(C[N+](=O)[O-])c2ccccc2)c2ccccc21 (stereo unspecified)
2.6	4%	-40	0.7	-1.7	0.7	i	Cc1cnc(C(=O)OCC(=O)c2ccccc2)cn1
-1.3	4%	0.8	-2.0	-1.8	0.65	i	COc1ccc(-c2nn(-c3ccccc3)cc2C(=O)N(C)C)cc1
5.2	4%	-1.3	3.0	3.2	0.7	i	Cc1cnc(NC(=O)c2ccc3c(c2)C(=O)N(Cc2cccnc2)C3=O)s1
-3.2	-2%	·	-1.2	-1.3	0.7	·	O=C(NCc1ccco1)c1ccccc1NC(=O)C1CC(=O)N(c2ccc(Cl)cc2)C1 (stereo unspecified)
?	9%	·	·	1.2	·	·	O=C(Cc1n[nH]c(=O)[nH]c1=O)N/N=C/c1ccccc1O
-0.6	·	-13	·	1.1	·	i	COc1cc(C=O)ccc1OC(=O)Nc1ccccc1
·	·	-2.7	1.9	0.0	·	i	C[C@@H]1COC(=O)[C@H](Cc2ccc(F)cc2)CC/C=C/C[C@@H](CC(=O)N[C@H](CO)Cc2ccccc2)C(=O)N1
1.1	0%	·	0.1	-1.9	0.67	·	CCCC(c1nnnn1CC1CCCO1)N1CCN(c2nc3ccccc3s2)CC1 (stereo unspecified)
6.7	3%&-5%	·	5.1	-2.9	0.7	·	CCCNC(=O)NC(=O)COC(=O)c1ccc(OC)c(S(=O)(=O)N2CCCc3ccccc32)c1
-2.0	?	-6.7	-5.7	2.7	0.69	i	O=C1C(Cl)=C(NC2CCCCC2)C(=O)N1Cc1ccccc1
0.7	17%	0.8	2.3	4.8	0.68	i	COc1ccc(C(=O)NNC(=O)c2ccc(S(=O)(=O)N3CCCCC3)cc2)cc1
2.7	8%	5.8	1.5	-1.5	0.63	i	CC1(C)C(=O)OC(/C=C/c2cccc([N+](=O)[O-])c2)C(C)(C)C1=O (stereo unspecified)
1.0	·	1.8	5.7	7.0	0.63	i	COc1ccccc1CCNC(=O)c1cc(-c2ccncc2)nc2ccc(Br)cc12
-3.3	24%	·	1.2	1.2	0.67	·	O=C(NCCc1ccccc1)c1nc2c(nnn2Cc2ccccc2Cl)c(=O)[nH]1
5.8	·	0.8	·	4.7	·	i	COCCn1c(=S)[nH]c2sc3c(c2c1=O)CCCC3
·	-427%	1.3	6.7	4.3	0.68	i	CC(Sc1nc2ccccc2c(=O)n1C)C(=O)Nc1ccc2c(c1)OCCO2 (stereo unspecified)
0.6	1%	0.3	0.2	2.4	0.7	·	COc1cccc(NC(=O)CSc2nc3ccccc3c(=O)n2CCCC(=O)NCCCN2CCOCC2)c1
6.5	0%	·	·	0.5	·	·	CCCc1n[nH]c2c1/C(=N/O)CC(c1ccccc1)C2 (stereo unspecified)
-0.5	2%&-1%	·	-1.6	-1.1	0.63	·	O=C(CCNC(=O)c1ccc(Br)o1)NCc1ccccn1
2.9	?	1.7	3.6	-1.4	0.68	·	c1cnc2c(OCc3nc4ccccc4[nH]3)cccc2c1
4.3	13%	·	-0.7	0.2	0.69	·	CCCCCSc1nc(C)c(CC(=O)O)c(=O)[nH]1
2.9	·	0.5	-8.7	-1.4	0.69	i	O=C(CCc1nnc2ccc(N3CCCC3)nn12)Nc1ccc(F)c(F)c1
?	0%	·	3.3	3.8	0.69	·	O=C(/C=C/c1ccc(S(=O)(=O)N2CCOCC2)cc1)NCc1ccccc1Cl

Whole records from above. Screens in order: RanGTP-Impb inh	Vif A3G	AF4-AF9 inh	UCH37 inh	HNF4A DNA FP	Ecoli growth	FGF22 binding
O=C(Oc1cccc(C(=S)N2CCOCC2)c1)c1ccc([N+](=O)[O-])cc1 in the list: -0.5	·	8.6	3.1	-1.9	0.68	i
CCOC(=O)c1c(NC(=O)COC(=O)c2ccccc2NC)sc(C(=O)N(C)C)c1C in the list: -2.1	·	-8.3	-314	-2.7	0.7	i
Cc1cnc(NC(=O)c2ccc3c(c2)C(=O)N(Cc2cccnc2)C3=O)s1 in the list: 5.2	4%	-1.3	3.0	3.2	0.7	i
CCOc1cc(S(=O)(=O)N2CCC(c3nc4ccccc4s3)CC2)c(OCC)cc1S(=O)(=O)N1CCCCC1 in the list: -3.7	5%	·	6.2	0.4	0.71	·
COc1cc(C=O)ccc1OC(=O)Nc1ccccc1 in the list: -0.6	·	-13	·	1.1	·	i

Next structures:
RanGTP-Impb inh	Vif A3G	AF4-AF9 inh	UCH37 inh	HNF4A DNA FP	Ecoli growth	FGF22 binding	canonical_smiles
·	1%	-4.4	·	3.9	·	i	CCN1C(C)=CC(=O)[C@@H](O)[C@H]1c1ccccc1Br
·	·	4.8	·	4.9	·	i	CC1(C(=O)Nc2cccnc2)Cc2c(-c3ccc4c(c3)OCO4)ccnc2O1 (stereo unspecified)
-0.1	?	·	1.4	2.5	0.65	·	O=C(/C(Br)=C/Nc1cc(Cl)ccc1Cl)C(F)(F)F
4.2	·	-2.1	·	-0.9	·	i	COc1ccc(/C=C/C(=O)OC2CCCN(C)C2)cc1 (stereo unspecified)
·	-3%	-2.0	1.0	-2.8	0.67	i	CSc1ncccc1C(=O)OCC(=O)NC1CCCc2ccccc21 (stereo unspecified)
0.3	17%	-5.1	4.0	0.5	0.68	i	CC(C)N(CCCNC(=O)c1nn(C)c2c1CS(=O)(=O)c1ccccc1-2)Cc1ccccc1
-2.7	8%	0.7	1.8	-0.1	0.68	i	O=C(Nc1ccccn1)c1csc2c1CCCC2
-1.8	-3%	5.0	·	0.3	·	i	COc1ccc(/C=N/NC(=O)c2ccc(C)cc2)cc1CN1CCN(c2ccc(F)cc2)CC1
2.4	·	-3.9	-9.4	1.6	0.71	i	Cc1ccccc1Cn1cc(NC(=O)c2cc(-c3ccco3)on2)cn1
-1.7	9%	0.3	-1.1	1.8	0.63	i	O=C(c1cc2c(s1)CCCC2)N1CCN(c2ccccc2)CC1
1.0	14%	·	-0.4	-1.4	0.73	·	COc1cc2c(cc1OC)-c1nnc(-c3ccco3)n1C1(CCCC1)C2
-2.1	-6%	-18	-0.7	-0.8	0.73	i	CC(C)CNC(=O)c1cc(-c2ccc(Cl)c(Cl)c2)on1
6.7	·	-5.1	3.7	5.7	0.69	i	CN(c1ccc(C(=O)NC2CCCC2)cc1)S(=O)(=O)c1ccc(Cl)cc1
·	22%	·	6.1	5.3	0.64	·	CCCc1cc(=O)[nH]c(Nc2ccc(OC)c(Cl)c2)n1
-0.5	-10%	3.3	·	4.0	·	i	COc1ccc(/C=N/NC(=O)c2ccco2)cc1OCc1ccccc1
5.4	·	1.9	0.9	3.8	0.67	i	CCOC(=O)C1CCN(S(=O)(=O)c2cc3c(cc2C)NC(=O)CO3)CC1
3.9	0%	·	1.8	-2.6	0.7	·	CCNC(=O)NC(=O)CSc1cccc(C(F)(F)F)c1
-1.7	·	-1.2	i	-1.1	0.7	i	COc1ccc2cc3cc(C(=O)NCc4cccnc4)oc3nc2c1
0.9	·	-1.1	2.4	0.7	0.7	i	O=C(CSc1nnc2ccccn12)NNC(=O)c1ccc(F)cc1
1.9	14%	·	4.5	-0.9	0.64	·	CN(C)S(=O)(=O)c1cccc(NC(=O)CCNC(=O)c2ccccc2Cl)c1
8.3	10%	5.8	4.8	-3.2	0.72	i	O=C(CSc1ccc2nnc(-c3ccccn3)n2n1)NCc1ccc2c(c1)OCO2
-1.4	·	2.5	3.8	2.5	0.71	i	CCc1cccc(CC)c1NC(=O)c1cccc(S(=O)(=O)N2CCN(C)CC2)c1
-0.3	0%	·	4.7	0.8	0.71	·	CC1Cc2ccccc2N1C(=O)Cc1cccs1 (stereo unspecified)
-2.4	·	-12	2.0	-0.1	0.8	i	Cc1cccc(NS(=O)(=O)c2cn(C)c(=O)n(C)c2=O)c1C
1.2	-9%	-2.5	·	-1.3	·	i	O=C1NC(=S)N/C1=C/c1cc2c(cc1[N+](=O)[O-])OCO2
-0.4	32%	-1.7	2.8	-0.7	0.74	i	Cn1c(SCC(=O)N2CCN(c3ccccc3)CC2)nnc1-c1c[nH]c2ccccc12
0.8	-2%	-14	1.3	-3.8	0.64	i	Cc1nn(C2CCS(=O)(=O)C2)c(Cl)c1/C=C/C(=O)OCC(=O)N(C)C (stereo unspecified)
23	·	-1.1	5.5	-3.8	0.68	i	CS(=O)(=O)c1nc(S(=O)(=O)c2ccc(Cl)cc2)c(N2CCOCC2)s1
3.5	1%	-9.0	0.1	1.8	0.66	i	O=C1CCc2cc(S(=O)(=O)N3CCN(c4ccc(F)cc4)CC3)cc3c2N1CC3
1.5	·	-2.2	4.8	1.9	·	i	OCC(O)[C@@H](O[C@H]1O[C@H](CO)[C@@H](O)[C@H](O)[C@H]1O)[C@H](O)[C@@H](O)CO (stereo partly specified)
?	3%	0.3	4.5	7.8	0.67	i	CC(C)Nc1ncnc2c1cnn2-c1ccc(Cl)cc1
?	-8%	1.8	0.2	-3.1	0.68	i	CC(=O)c1cc(-c2ccc(F)cc2)n(CCC(=O)NC(C)(C)C)c1C
2.0	·	-1.5	-143	-0.5	0.67	i	Cc1ccc(-c2cc(C(=O)Nc3ccccc3C(N)=O)c3ccccc3n2)o1
5.4	·	1.9	3.5	2.4	0.7	i	Cc1ccc(N2C(=O)N(CC(=O)Nc3ccc([N+](=O)[O-])cc3)C(=O)C2C)cc1 (stereo unspecified)
-2.0	·	-1.6	1.0	1.7	0.7	i	CC(C)c1cc(CN2CCN(C3CCCC3)C(CCO)C2)[nH]n1 (stereo unspecified)
7.2	-8%	-2.0	3.7	1.0	0.57	i	On1c(-c2ccccc2)nc2ncccc21
-0.5	4%	-8.3	4.6	-1.0	0.67	i	CCOC(=O)c1cc(OC(=O)c2ccccc2Br)n(-c2ccccc2)n1
-1.9	1%	·	1.0	2.9	0.73	·	COc1ccc(S(=O)(=O)CCc2nnc(NC(=O)c3cccs3)s2)cc1
-4.7	·	0.4	6.2	-2.2	0.69	i	COc1cccc(C(=O)NCc2ccco2)c1
